Screening results deposited in PubChem BioAssay by National Center for Advancing Translational Sciences (NCATS).
Six1-Eya2 blk: qHTS Assay for Inhibitors of the Six1/Eya2 Interaction; activity change, % (test concentration not listed); hit rate 0.56% among 360,000; AlphaScreen GST-Six1/His-Eya2 binding, biochemical; active compounds read low; control for the full effect not named in the record; AID 651725, 2012; Homeobox protein SIX1 (Homo sapiens) + Protein phosphatase EYA2 (Homo sapiens), …; in the data active = activity change below about -65%; inconclusive = about -30% to -65%; inactive = above about -30%; further: on the % scale 0 is the no-effect control and ±100 the full control effect
Target sequence (O00167 whole entry, looked up): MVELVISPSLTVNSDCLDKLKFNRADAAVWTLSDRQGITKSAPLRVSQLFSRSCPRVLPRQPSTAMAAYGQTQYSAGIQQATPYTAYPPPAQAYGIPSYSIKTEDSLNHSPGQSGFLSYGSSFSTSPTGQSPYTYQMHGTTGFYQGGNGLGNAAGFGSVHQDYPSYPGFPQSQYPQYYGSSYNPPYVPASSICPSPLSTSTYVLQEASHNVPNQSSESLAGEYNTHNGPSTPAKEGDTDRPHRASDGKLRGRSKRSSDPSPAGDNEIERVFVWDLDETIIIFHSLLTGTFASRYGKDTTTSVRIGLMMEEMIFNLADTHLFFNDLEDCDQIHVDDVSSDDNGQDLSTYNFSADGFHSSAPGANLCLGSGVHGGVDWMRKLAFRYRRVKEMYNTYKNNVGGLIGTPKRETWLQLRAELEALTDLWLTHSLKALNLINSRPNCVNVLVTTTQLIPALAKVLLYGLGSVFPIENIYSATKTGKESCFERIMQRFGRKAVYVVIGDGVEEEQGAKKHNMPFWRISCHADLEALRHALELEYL
Target sequence (Q15475 whole entry, looked up): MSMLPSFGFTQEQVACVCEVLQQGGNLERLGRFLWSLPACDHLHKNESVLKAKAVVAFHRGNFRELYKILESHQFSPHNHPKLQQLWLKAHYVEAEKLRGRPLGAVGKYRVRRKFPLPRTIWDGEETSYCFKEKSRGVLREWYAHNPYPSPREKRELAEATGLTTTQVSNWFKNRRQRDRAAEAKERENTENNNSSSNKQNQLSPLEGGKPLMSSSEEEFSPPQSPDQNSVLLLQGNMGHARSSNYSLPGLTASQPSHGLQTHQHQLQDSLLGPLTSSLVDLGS
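AlphaScreen with GST-Six1 and His-Eya2 (5X mix: 250 nM and 500 nM), glutathione donor and nickel acceptor beads; buffer 50 mM Tris pH 8.0, 300 mM NaCl, 1 mM TCEP; 1 h at 37 C in the dark.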
gsp ag: qHTS for Agonist of gsp, the Etiologic Mutation Responsible for Fibrous Dysplasia/McCune-Albright Syndrome: qHTS | gsp mutant cells, cAMP HTRF, 30 min; control for the full effect not named in the record | hit rate 0.13% among 340,000 | AID 624287, 2012 | Potency, µM (titrated, usually from 76.9 µM), without a hit: at the highest dose activation (cAMP increase), actives largely listed as activators; active = well fitted activation curve with a large enough effect; inconclusive = small, poorly fitted or top-dose-only effect, or another doubt; inactive = no such curve, though single readings can be large or run the other way; cell line not stated here;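 further: phosphodiesterase inhibitor Ro 20-1724 added with compounds to block cAMP breakdown; potency means the concentration at half of the fitted maximal effect; nearly all actives have a fitted effect of over 60% in size; about a fifth of the inactives were tested at one dose only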
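Cells stably selected in G418 were plated at 2000/well, grown 16-24 hr, then given compounds in DMSO with the PDE inhibitor […] (300 uM solution added) for 30 min at 37C; cAMP was read by HTRF.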
CtBP-E1A inh: qHTS Assay for Inhibitors of the CtBP/E1A Interaction; AlphaScreen GST-E1A/His-CtBP binding, 1536-well; active compounds read low; control for the full effect not named in the record; CtBP / adenovirus E1A interaction (AlphaScreen); activity change, % (concentration not given with the values); hit rate 0.49% among 340,000; in the data active means activity change below about -65%; inconclusive means about -30% to -65%; inactive means above about -30%; further: on the % scale 0 is the no-effect control and ±100 the full control effect
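Steps: dispense buffer (Tris pH 8.0, NaCl 300 mM, TCEP 1 mM, BSA, Tween 20); add 5X protein mix (GST-E1A, His-CtBP, 125 nM each); pin 23 nL compound; 2 h at 37 °C, dark; add 5X beads (50 ug/mL); 1 h; read.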
gsp antag: qHTS for Antagonists of gsp, the Etiologic Mutation Responsible for Fibrous Dysplasia/McCune-Albright Syndrome: qHTS | Potency, µM (series often up to 76.9 µM), without a hit: top-dose activity change, negative = inhibition, most hits filed as inhibitors | hit rate 0.4% among 340,000 | gsp-mutant cells, cAMP HTRF, 30 min; control for the full effect not named in the record; active = falling curve of any shape with a large fitted effect; inconclusive = falling curve, mostly with a smaller effect; inactive = flat or rising curve; cell line not stated here;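 further: intracellular cAMP measured with PDE inhibitor Ro 20-1724 present during compound exposure; potency means the concentration at half of the fitted maximal effect; on the % scale 0 is the no-effect control and ±100 the full control effect; nearly all actives have a fitted effect of over 65% in size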
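Cells, 2000/well, grown 16–24 h in DMEM 10% FBS with 0.5 mg/ml G418, then compounds plus […] (300 uM addition stock), 30 min at 37C. cAMP read by HTRF (cAMP-d2 and anti-cAMP antibody-K in lysis buffer) after 30 min RT.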
D2 ag: Beta-Arrestin HTS for Positive Allosteric Modulators of the Human D2 Dopamine Receptor: Agonists; D(2) dopamine receptor (Homo sapiens), P14416; DiscoveRx PathHunter D2 beta-arrestin, luminescence, 90 min; 100% = 57 uM dopamine signal; activation, % (concentration not given with the values); hit rate 0.084% among 360,000; AID 624465, 2012; in the data active = activation above about 40%; inconclusive = about 15% to 40%; inactive = below about 15%; further: compound concentration not given in the record; the text of the record calls up to 30% inactive
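Agonist mode: compounds alone added to overnight-plated D2 PathHunter cells for 90 min at 37 C, with 57 uM final dopamine (EC100) defining full response. Beta-arrestin recruitment detected by chemiluminescent reagent, read after 1 h at ambient temperature.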
D2 potentiator: Beta-Arrestin HTS for Positive Allosteric Modulators of the Human D2 Dopamine Receptor: Potentiators. DiscoveRx D2 beta-arrestin cells, luminescence, 90 min; 100% = 57 uM dopamine signal. AID 624464, 2012. potentiation, % (no concentration beside the values). hit rate 0.23% among 360,000. D(2) dopamine receptor (Homo sapiens), P14416; active = potentiation of 50% or more; inconclusive = 30% to 50%; inactive = 30% or less;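 further: compound concentration not given in the record; tested on top of an EC20 dose of dopamine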
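PathHunter D2 cells, attached overnight at 37 deg C, received compound in DMSO plus dopamine at EC20 (50 nM final) for 90 min at 37 deg C. Beta-arrestin recruitment was read as luminescence after 1 h with detection reagent at ambient temperature.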
Starred values were filed as active, the others as inactive; ? = inconclusive; . = not tested or not shown; [ ] = dose if it differs, or a comment.

SMILES	Six1-Eya2 blk	gsp ag	CtBP-E1A inh	gsp antag	D2 ag	D2 potentiator
COc1cccc(-n2c(SCC(=O)Nc3sc4c(c3C(N)=O)CCC4)nc3ccccc3c2=O)c1	-6	-52%[inhibitor]	-12	1%	-2.0	0
O=C(COc1ccccc1Cl)Nc1cccc(S(=O)(=O)NC2=NCCCCC2)c1	0	-2%[15.4 µM]	0	2%	-1.3	8
C/C(=N/N1CCN(Cc2ccccc2)CC1)c1ccc(Br)cc1	-9	-25%	-17	2%	-2.0	-2
Cc1oc2c(CN3CCCCC3)c(O)ccc2c(=O)c1-c1ccc(Br)cc1	-5	?	12	-10%	-2.6	-7
COc1cccc(C2CC(C(F)(F)F)n3ncc(C(=O)O)c3N2)c1 (centres undefined)	1	1%	0	-1%	-2.2	-1
CCOC(=O)c1c(NC(=O)CC(C)C)sc(C(C)=O)c1C	12	?	11	9%	-2.4	7
COc1ccc(OC)c(NC(=O)C23CC4CC(C2)CC(n2cnc(Br)n2)(C4)C3)c1	-3	-50%[inhibitor]	-2	7%	-2.5	-6
COc1cc(S(=O)(=O)N2CCOCC2)ccc1NC(=O)c1cc2c(s1)CCC2	-13	-1%	-9	-4%	-7.0	2
CN1CCN(Cc2c(O)ccc3cc(-c4ccccn4)c(=O)oc23)CC1	-3	4%[15.4 µM]	0	5%	-5.2	-3
COc1ccc(NC(=O)c2cc(OC)c(OC)cc2OC)c(S(=O)(=O)N2CCOCC2)c1	-8	-46%[inhibitor]	3	11%	-0.4	-23
C=C1C(=O)C23C(O)C1CCC2C12CCCC(C)(COC(C)=O)C1C(O)C3(O)OC2 (centres undefined)	-3	-3%	-2	-5%	-8.6	-35
CC(C)(C)c1ccc(S(=O)(=O)NC(=O)C2(C)CCN2C(=O)C2(c3ccccc3)CC2)cc1 (centres undefined)	-5	.	3	.	4.9	5
CCCc1nnc(SCC(=O)N(CC)CC)n1CC1CCCO1 (centres undefined)	4	?	5	-5%	0.7	0
Cn1nnc(NC(=O)c2ccco2)n1	6	-38%[inhibitor]	1	5%	-1.9	-5
COc1ccc2[nH]cc(CCNC(=O)C3CC(=O)N(c4ccc(Cl)cc4)C3)c2c1 (centres undefined)	-11	5%	-14	-20%	-4.3	4
CC(C)Oc1ccc(/C(O)=C2/C(=O)C(=O)N(CCN3CCNCC3)C2c2ccc(C(C)C)cc2)cc1 (centres undefined)	4	?	6	-7%	-5.7	0
O=C1CCN(Cc2ccc([N+](=O)[O-])cc2)CCN1CCO	5	.	1	11%	1.3	-13
COc1ccccc1C(CNC(=O)COc1cc(C)ccc1Cl)N1CCCC1 (centres undefined)	-1	4%	-24	5%	-3.4	-9
Cc1ccn2c(=O)nc(SCC(=O)N3CCCC3)nc2c1	4	?	6	-7%	0.9	2
Nc1nnc(-c2ccc(Cl)c([N+](=O)[O-])c2)s1	-13	0%	.	-19%	3.7	?
COc1ccc(Cl)cc1NC(=O)CN(C)C(=O)c1ccc(-n2cncn2)cc1	-5	-9%	2	9%	-2.4	-15
CCN1CCN(c2ccc(NC(=O)c3cccc(S(=O)(=O)N4CCCC4)c3)cc2)CC1	0	-36%[inhibitor]	-4	-7%	-3.1	-25
CCC(=O)NC1(C(F)(F)F)C(=O)NC(C)=C1C#N (centres undefined)	7	0%	3	3%	-2.1	-1
CCC1=C(OC(=O)N(CC)CC)N2C(=O)OC(=NCc3ccccc3)[C@]2(C)[C@H]2C1=CC[C@H]1C(=O)N(c3ccccc3)C(=O)[C@H]12	-1	.	-3	?	-2.7	-2
COc1cccc(-c2cc(=O)c3cc(NC(=O)c4ccccc4)ccc3[nH]2)c1	-3	.	2	3%	1.0	-7
Cc1ccc(S(N)(=O)=O)cc1NC(=O)/C=C/c1cccs1	0	1%	-2	0%	-3.8	-19
COc1ccc(Oc2coc3cc(O)ccc3c2=O)cc1	5	0%	-6	-7%	-4.3	0
COCCn1c(=N)c(C(=O)NCc2ccco2)cc2c(=O)n3ccccc3nc21	-21	11%	-22	3%	-0.6	-4
CCOCC(=O)Nc1ccc(S(=O)(=O)Nc2nccs2)cc1	1	2%	-1	-1%	-4.9	-6
Cc1c(NC(=O)CCSCCc2ccccn2)cccc1[N+](=O)[O-]	9	-6%	4	15%	-3.0	1
NNC(=S)Nc1ccc(OC(F)(F)F)cc1	42	0%	0	1%	2.9	-7
Cc1ccc(-n2c(SCC(N)=O)nnc2-c2ccccn2)cc1	-25	-32%[inhibitor]	-14	9%	0.2	-11
COc1ccc(OC(F)(F)F)cc1CC1(C)C(=O)Nc2ccc(-c3ccsc3)cc21 (centres undefined)	-4	.	2	.	-3.1	-15
Cn1c(-c2ccc(F)cc2)cnc1SCC(=O)N1CCCc2ccccc21	-21	2%	-16	-9%	-3.1	-27
Nc1c(C2CCCCC2)c(=O)on1C(=O)c1ccccc1	-3	3%	3	-3%	?	20
c1ccc(Cn2c[n+](Cc3ccccc3)cn2)cc1	4	-10%	.	4%	-2.8	-5
COCCNC(=S)N/N=C/c1ccc([N+](=O)[O-])cc1	-2	-11%[15.4 µM]	-1	1%	-0.3	10
O=C1NN=C(CSc2n[nH]c(=S)s2)CS1	-6	-2%	.	3%	4.1	-17
COc1ccc(/C=C2\CCCC3C2=NN(C(=O)CSc2n[nH]c(N)n2)C3c2ccc(OC)cc2)cc1 (centres undefined)	-14	-28%	.	?	-10	-33
CSCCC(NC(=O)COc1ccccc1)C(=O)N1CCCCCC1 (centres undefined)	-1	-22%	.	-2%	-0.7	3
COc1cc(C(=O)NC(CCSC)C(=O)OCC(=O)NC(=O)C2CCCCC2)cc(OC)c1OC (centres undefined)	0	-17%	.	-6%	-2.0	-1
CCOC(=O)N1CCN(C(=O)c2ccc(Cl)c(S(=O)(=O)Nc3ccccc3)c2)CC1	12	9%	0	-17%	-4.8	-11
Cc1ccc(CN2CCN(CC(=O)N=Nc3c(O)[nH]c4ccccc34)CC2)cc1	-6	-2%	2	-6%	-1.7	-48
Cn1ccnc1C(=O)c1ccc(S(=O)(=O)N2CCCC2)cc1	10	20%[15.4 µM]	7	.	1.9	0
CN(c1ccc(C(=O)NC2CC2)cc1)S(=O)(=O)c1ccccc1	7	13%	4	9%	-2.8	-1
O=C(Cn1[nH]c(=O)c2ccccc2c1=O)N1CCN(S(=O)(=O)c2ccc(Cl)cc2)CC1	0	18%	-3	-8%	-3.5	-3
CC(C)(C)c1ccccc1OCC(=O)NCc1ccccc1	1	18%	.	-5%	4.1	21
COc1cc(/C=N/NC(=O)c2cc(-c3cccc(Br)c3)nc3ccccc23)cc(OC)c1O	-14	5%[15.4 µM]	-8	-11%	0.4	7
COc1cc(-c2n[nH]c(=S)n2-c2cccc(C(F)(F)F)c2)cc(OC)c1OC	4	7%	6	-7%	-3.0	1
COc1cc(OC)cc(C(=O)NCC(=O)OCC(=O)N2CC(C)CC(C)C2)c1 (centres undefined)	-1	-26%	.	-8%	1.1	0
COc1cc(/C=C(\C#N)C(=O)Nc2cccc3ncccc23)cc(OC)c1OC	16	-28%	2	8%	1.6	-6
COc1ccc(/C=C(/C#N)C(=O)Nc2ccc(O)cc2)cc1C(=O)O	?	-34%[inhibitor]	.	5%	-2.0	1
CC(C)c1onc(C(=O)N2CCN(c3ccc(F)cc3)CC2)c1[N+](=O)[O-]	-2	22%	-6	8%	4.2	-2
CC(=O)Nc1cc2oc3ccccc3c2cc1[N+](=O)[O-]	3	-14%[15.4 µM]	9	8%	0.2	5
COc1cc(/C=N/NC(=O)CCC(=O)NC2CCCCC2)ccc1C	0	-7%	-3	-6%	-2.3	-5
CCOC(=O)C1=C(Nc2ccc(Cl)cc2)OCC1=O	4	-4%[15.4 µM]	-3	-1%	-7.0	-4
Cc1cc(OCCCCN2C(=O)NC(C)(C)C2=O)ccc1[N+](=O)[O-]	-1	-8%	6	-12%	0.0	0
O=C(CN1C(=O)c2ccccc2S1(=O)=O)NCc1ccccc1	8	-7%[15.4 µM]	-1	-6%	-7.0	-4
Cc1ccccc1NC(=O)Cn1c(NCC(C)O)nc2ccccc21 (centres undefined)	-1	5%	-15	10%	-3.0	-5
COc1ccccc1NS(=O)(=O)c1ccc(C)c(NS(=O)(=O)c2cc(C(=O)O)cc(C)c2C)c1	3	13%[15.4 µM]	-3	5%	-3.0	-5

Compound profiles (already shown).
`COc1ccccc1NS(=O)(=O)c1ccc(C)c(NS(=O)(=O)c2cc(C(=O)O)cc(C)c2C)c1` is listed with Six1-Eya2 blk = 3; gsp ag = 13%[15.4 µM]; CtBP-E1A inh = -3; gsp antag = 5%; D2 ag = -3.0; D2 potentiator = -5
`COc1cc(-c2n[nH]c(=S)n2-c2cccc(C(F)(F)F)c2)cc(OC)c1OC` is listed with Six1-Eya2 blk = 4; gsp ag = 7%; CtBP-E1A inh = 6; gsp antag = -7%; D2 ag = -3.0; D2 potentiator = 1

Next part
SMILES	Six1-Eya2 blk	gsp ag	CtBP-E1A inh	gsp antag	D2 ag	D2 potentiator
CC1(C)N=C(C(=O)c2ccccc2)N(O)C1(C)O (centres undefined)	4	1%	4	2%	-0.9	-2
CCNS(=O)(=O)c1ccc(CCC(=O)NC2CCCC2)cc1	-7	-34%[inhibitor]	-3	16%	-1.6	-4
Cc1cccc(OCCn2cc(/C=N/NC(=O)c3ccncc3)c3ccccc32)c1	0	-28%[15.4 µM]	-24	6%	1.9	2
Cc1cccc(N2CCN(C(=O)c3ccc(N4CCCC4=O)cc3)CC2)c1C	7	11%	6	-6%	-2.3	-6
O=S(=O)(c1ccc2c(c1)CCN2)N1CCCC1	5	0%	-11	4%	2.0	-3
CC[C@@H]1CN(C)[C@H]2Cc3c([nH]c4ccccc34)C(=O)C[C@@H]1[C@@H]2C(=O)OC	1	.	2	-1%	-8.0	-5
O=C(CCCC(=O)n1cnc2ccccc21)n1cnc2ccccc21	4	-35%[inhibitor]	6	5%	-1.1	-2
O=C(NCC(c1ccco1)N1CCCCC1)C(c1ccccc1)c1ccccc1 (centres undefined)	-6	-5%	-1	-2%	0.1	-13
C/C=C/C(=O)OCc1csc(CC(=O)Nc2ccccc2C)n1	0	0%	7	3%	0.5	7
COc1cccc(NC(=O)C2CCCC2)c1	-1	0%	3	13%	-4.5	-4
